EPAC1 ag val: human EPAC1 agonism, validation; actives 1% (n = 16,000); Potency, µM, for inactives: max response, positive = active, actives largely listed as activators; EPAC1 Rap1b BODIPY-GDP exchange, fluorescence; AID 1645883; O95398; active = well fitted activation curve with a large enough effect; inconclusive = small, poorly fitted or top-dose-only effect; inactive = no such curve, though single readings can be large or run the other way;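 also: nearly all actives have a fitted effect of over 70% in size; series mostly up to about 76 or 150 µM; scaled to a cAMP control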
Target sequence (O95398 whole entry, looked up): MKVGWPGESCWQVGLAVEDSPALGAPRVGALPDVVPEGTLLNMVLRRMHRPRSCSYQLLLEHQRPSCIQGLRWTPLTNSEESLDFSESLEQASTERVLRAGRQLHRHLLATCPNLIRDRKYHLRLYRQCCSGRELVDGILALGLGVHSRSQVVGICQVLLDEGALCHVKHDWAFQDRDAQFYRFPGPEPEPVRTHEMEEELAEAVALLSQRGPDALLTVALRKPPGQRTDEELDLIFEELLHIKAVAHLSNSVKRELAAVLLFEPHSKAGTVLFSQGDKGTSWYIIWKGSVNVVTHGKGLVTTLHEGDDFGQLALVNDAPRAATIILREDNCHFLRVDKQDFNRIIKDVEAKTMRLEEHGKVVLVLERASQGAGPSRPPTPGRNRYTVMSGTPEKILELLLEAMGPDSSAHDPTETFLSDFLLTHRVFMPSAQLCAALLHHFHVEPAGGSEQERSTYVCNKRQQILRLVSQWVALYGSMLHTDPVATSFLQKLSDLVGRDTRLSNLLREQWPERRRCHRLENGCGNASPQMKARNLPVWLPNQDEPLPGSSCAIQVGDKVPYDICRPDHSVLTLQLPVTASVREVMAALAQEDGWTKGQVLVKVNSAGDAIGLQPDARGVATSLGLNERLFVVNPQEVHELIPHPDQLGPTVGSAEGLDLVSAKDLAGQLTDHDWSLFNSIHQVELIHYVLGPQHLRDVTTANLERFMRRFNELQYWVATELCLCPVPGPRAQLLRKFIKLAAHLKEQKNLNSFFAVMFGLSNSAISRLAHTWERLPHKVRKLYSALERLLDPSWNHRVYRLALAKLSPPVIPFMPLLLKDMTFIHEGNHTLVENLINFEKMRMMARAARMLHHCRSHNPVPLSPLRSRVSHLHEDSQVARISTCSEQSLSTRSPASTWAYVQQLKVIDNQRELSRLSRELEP
Numbers without * were called inactive; ? = inconclusive; & = joins results of further samples; [ ] = dose if it differs, or a comment. % is scaled to controls: 0 for no effect and ±100 for the full control effect; potency is read from the fitted curve at half-maximal effect.

The opening 17 entries, to show the layout:
SMILES	EPAC1 ag val
O=C(CN1Cc2ccccc2OC(c2ccccc2)C1)N1CCCCC1c1cccnc1 (stereo not drawn)	4%
COc1ccccc1CN1CCCC(n2cc(C(=O)N3CCCCC3)nn2)C1 (stereo not drawn)	-10%
O=C(NCCc1ccccc1)[C@@H]1CC=C[C@@H]2CCN(C3CC3)C(=O)[C@@H]21	?
O=C(O)/C=C/c1cnc[nH]1	-9%
CN(C)c1ccc(-c2c(-c3ccc4c(c3)OCO4)noc2-c2ccsc2)cn1	?
Cn1nnnc1SCC1=C(C(=O)O)N2C(=O)C(NC(=O)C(OC=O)c3ccccc3)C2SC1 (stereo not drawn)	29%
CC(C)NC(=O)N1CCCC2(CCN(C(=O)c3cc(C(F)(F)F)cc(C(F)(F)F)c3)CC2)C1	-103%[inhibitor]
COc1cc(C/C=C\c2ccccc2)c(OC)cc1O	5%
Cc1cnc(CNc2ncncc2-c2ccc(C(=O)N(C)C)cc2)cn1	10%
c1ccc(C(c2ccccc2)N2CC[C@@]3(CCCNC3)C2)cc1	-23%
O=S1(=O)[C@H]2C[C@@H]3C=C[C@@]2(CN1Cc1ccc(Cl)cc1)O3	?
COc1cccc(CN2CCCC(c3nc(C)ncc3-c3ccc(F)cc3)C2)c1OC (stereo not drawn)	-15%
O=c1cc(-c2ccc(O)cc2)oc2cccc(O)c12	-3%
CC(NC(=O)c1cccnc1)c1nnc2n1CCN(Cc1ccc(F)cc1F)CC2 (stereo not drawn)	-5%
CO[C@H]1[C@H](NC(=O)c2ccsc2)c2ccccc2C12CCN(Cc1cc3ccccc3o1)CC2	29%
O=C(NCC1CCC2(CCN(Cc3cnn(-c4ccc(F)cc4)c3)CC2)O1)c1ccccc1 (stereo not drawn)	15%
CCNC(=O)c1sc2ncnc(NCCCN3CCOCC3)c2c1C	0%

All compounds of this part, from the first entry:
SMILES	EPAC1 ag val
O=C(CN1Cc2ccccc2OC(c2ccccc2)C1)N1CCCCC1c1cccnc1 (stereo not drawn)	4%
COc1ccccc1CN1CCCC(n2cc(C(=O)N3CCCCC3)nn2)C1 (stereo not drawn)	-10%
O=C(NCCc1ccccc1)[C@@H]1CC=C[C@@H]2CCN(C3CC3)C(=O)[C@@H]21	?
O=C(O)/C=C/c1cnc[nH]1	-9%
CN(C)c1ccc(-c2c(-c3ccc4c(c3)OCO4)noc2-c2ccsc2)cn1	?
Cn1nnnc1SCC1=C(C(=O)O)N2C(=O)C(NC(=O)C(OC=O)c3ccccc3)C2SC1 (stereo not drawn)	29%
CC(C)NC(=O)N1CCCC2(CCN(C(=O)c3cc(C(F)(F)F)cc(C(F)(F)F)c3)CC2)C1	-103%[inhibitor]
COc1cc(C/C=C\c2ccccc2)c(OC)cc1O	5%
Cc1cnc(CNc2ncncc2-c2ccc(C(=O)N(C)C)cc2)cn1	10%
c1ccc(C(c2ccccc2)N2CC[C@@]3(CCCNC3)C2)cc1	-23%
O=S1(=O)[C@H]2C[C@@H]3C=C[C@@]2(CN1Cc1ccc(Cl)cc1)O3	?
COc1cccc(CN2CCCC(c3nc(C)ncc3-c3ccc(F)cc3)C2)c1OC (stereo not drawn)	-15%
O=c1cc(-c2ccc(O)cc2)oc2cccc(O)c12	-3%
CC(NC(=O)c1cccnc1)c1nnc2n1CCN(Cc1ccc(F)cc1F)CC2 (stereo not drawn)	-5%
CO[C@H]1[C@H](NC(=O)c2ccsc2)c2ccccc2C12CCN(Cc1cc3ccccc3o1)CC2	29%
O=C(NCC1CCC2(CCN(Cc3cnn(-c4ccc(F)cc4)c3)CC2)O1)c1ccccc1 (stereo not drawn)	15%
CCNC(=O)c1sc2ncnc(NCCCN3CCOCC3)c2c1C	0%
COC1C(O)C(CO)OC1n1cnc2c(=O)[nH]c(N)nc21 (stereo not drawn)	11%
COC(=O)C(CN)c1c[nH]c2ccc(OC)cc12 (stereo not drawn)	7%
Cc1ccccc1-c1cnc(-c2ccncc2)nc1C1CCCN(Cc2ccccc2O)C1 (stereo not drawn)	23%
Cc1onc(-c2ccc3c(c2)OCO3)c1-c1ccc2[nH]ccc2c1	100µM*
COCC(=O)Nc1cc(C(=O)NC2CCCc3ccccc32)c2c(c1)nc(-c1ccncc1)n2C (stereo not drawn)	10%
COC(=O)c1cccc(C(=O)NCc2nc(-c3ccccc3NC(C)=O)oc2C)c1	4%
CC(=O)OC1CCC2(C)C3CC(=O)C4(C)C(CC5OC6(CCC(C)CO6)C(C)C54)C3CC[C@H]2C1 (stereo partly drawn)	?
C[C@@]12CCC(O)C[C@H]1CCc1ccccc12 (stereo partly drawn)	13%

The results go on.
SMILES	EPAC1 ag val
C[N+]12CCC(CC1)C(OC(=O)C(O)(c1ccccc1)c1ccccc1)C2 (stereo not drawn)	-20%&-15%
O=C(O)c1cc2cc(F)ccc2[nH]1	0%&24%
Cc1ccccc1C1(CC(=O)N2CCOCC2)CC(=O)N(Cc2cccnc2)C1=O (stereo not drawn)	-3%
Cn1cc(-c2nc3cnc(N4CCNCC4)nc3n(Cc3ccc(F)cc3)c2=O)c2ccccc21	-27%
FC(F)(F)c1ccccc1-c1ccc2ncnc(NC3CCNCC3)c2c1	-5%
Cn1cccc1C(=O)N1CCC[C@@]2(CCN(Cc3nccs3)C2)C1	-54%[inhibitor]
CCCCCCCN1CCC(=O)N(CCO)CC1	8%
COC[C@H](c1ccc(C(F)(F)F)cc1)N1CCN(C2(C)CCN(C(=O)c3c(C)ncnc3C)CC2)C[C@H]1C	-33%[inhibitor]
O=C(c1cccc(F)c1)N1CCC2(CCCN(c3cccc(-c4ccccc4)c3)C2)CC1	100µM*
COc1ccc(C(=O)N2CCN(CC(=O)N3CCOCC3)CC2)cc1	23%
COc1ccc(NC(=O)N2CC3(CCN(S(C)(=O)=O)CC3)C2)cc1	6%
CC(=O)OCC(=O)[C@@]1(O)CCC2C3CCC4=CC(=O)CC[C@]4(C)C3C(O)C[C@]21C (stereo partly drawn)	29%
CCC1CN(Cc2c(C)nc3sccn23)Cc2cc(OC)ccc2O1 (stereo not drawn)	1%
O=C(c1ccco1)N1CCC2(CC1)CCN(C(c1ccccc1)c1ccccc1)CC2	-5%
COC(=O)N1CCC[C@@]2(CCN(C(=O)NC(C)C)C2)C1	-61%[inhibitor]
OCc1ccc(Cl)cc1Cl	-30%
CCCC(=O)NCCc1c2n(c3ccc(OC)cc13)CCCc1ccccc1-2	5%
CC(=O)OCOC(c1ccc2ccccc2c1)P(=O)(OCOC(C)=O)OCOC(C)=O (stereo not drawn)	-7%
CC(=O)Oc1c(C)cc(OCC(O)CNC(C)C)c(C)c1C (stereo not drawn)	-19%
CCOC(=O)c1ccc(-c2c(-c3ccc4c(c3)OCO4)noc2-c2ccsc2)cc1F	26%
O=C(/C=C/c1ccc(O)c(O)c1)O[C@@H]1C[C@@](O)(C(=O)O)C[C@H](O)[C@@H]1O	-4%
N[C@@H](CSS(=O)(=O)O)C(=O)O	-10%&-17%&-10%
O=C(O)[C@H](CC(=O)N1C[C@H]2CCCC[C@H]2C1)Cc1ccccc1	-22%
C1=Cc2ccccc2/C1=C/c1ccc(/C=C2\C=Cc3ccccc32)cc1	?
COc1ccccc1N1CCN(CC(O)COc2cccc3ccccc23)CC1 (stereo not drawn)	23%&16%

(further entries)
SMILES	EPAC1 ag val
Cn1c(SCc2ccccc2)nnc1C1CCCN(Cc2cccc3ncccc23)C1 (stereo not drawn)	-2%
CN1CCN(c2cc3c(nn2)Oc2ccccc2N3C)CC1	-13%
O=C(C[N+]12CCCc3cccc(c31)CCC2)c1ccccc1	?
C=CCNc1ncnc2ccc(Br)cc12	-8%
CN(C)c1ccc(-c2cncnc2Nc2ccccc2)cc1	3%
O=C(NCC1Cc2cccc(-c3cccnc3)c2O1)c1cc(-c2ccccc2)n[nH]1 (stereo not drawn)	18%
CCNc1ncc2nc(C)c(=O)n(C3CC3)c2n1	-16%
CC(C)CC(NP(=O)(O)O[C@@H]1O[C@@H](C)[C@H](O)[C@@H](O)[C@H]1O)C(=O)NC(Cc1c[nH]c2ccccc12)C(=O)O (stereo partly drawn)	-8%
CCC1OC(=O)C(C)[C@@H](O[C@H]2C[C@@](C)(OC)C(O)C(C)O2)C(C)[C@@H](O[C@@H]2OC(C)CC(N(C)C)C2O)[C@@](C)(O)CC(C)CN(C)C(C)C(O)[C@]1(C)O (stereo partly drawn)	29%
COC(=O)/C(C)=C/CC12OC(C)(C)C3CC(C=C4C(=O)c5cc6c(c(CCC(C)(C)Cl)c5OC431)OC1(C)CCC(=C(C)C)C6C1)C2=O (stereo not drawn)	-8%
N[C@H](CCCP(=O)(O)O)C(=O)O	-2%&1%
COC1C[C@@H](O[C@@H]2C(C)C(=O)OC(C)C(C)C(O)C(C)C(=O)[C@@]3(CO3)CC(C)C(OC3OC(C)CC(N(C)C)C3O)C2C)OC(C)[C@@H]1O (stereo partly drawn)	2%
c1ccc(C(O[C@H]2CCCN(CCc3ccc4c(c3)OCO4)C2)c2ccccc2)cc1	?
CC(C)CC(=O)N[C@H](C(=O)N[C@H](C(=O)N[C@@H](CC(C)C)[C@@H](O)CC(=O)N[C@@H](C)C(=O)N[C@@H](CC(C)C)[C@@H](O)CC(=O)O)C(C)C)C(C)C	?
COc1ccc2c(c1)-c1nc(-n3ncc(C(=O)NCc4cccnc4)c3C3CC3)ncc1CC2	0%
CCNc1ncc2nc(-c3ccc(OC)cc3)c(=O)n(CCC#N)c2n1	-15%
Nc1ncnc2c1ncn2[C@H]1O[C@@H](CSCC[C@@H](N)C(=O)O)[C@H](O)[C@@H]1O	-12%
CC(=O)N1CCN(c2ccc(OC[C@H]3CO[C@](Cn4ccnc4)(c4ccc(Cl)cc4Cl)O3)cc2)CC1	4%&-12%&3%
Cc1ccccc1C1(CC(=O)N2CCCC(C)C2)CC(=O)N(Cc2cccnc2)C1=O (stereo not drawn)	2%
Cc1ncc2c(c1CNS(=O)(=O)N(C)C)CCN(C(=O)/C=C/c1ccccc1)C2	4%
CC(=O)Nc1c(I)c(C(=O)N[C@H]2C(O)O[C@H](CO)[C@@H](O)[C@@H]2O)c(I)c(N(C)C(C)=O)c1I (stereo partly drawn)	-25%
Cc1ccc(C(C)CCN2CCOc3ccc(CN4CCOCC4)cc3C2)o1 (stereo not drawn)	8%
COc1cc(=O)n2c(c1C(=O)NCc1ccco1)CCN(Cc1cc3ccccc3[nH]1)CC2	-1%
Cn1c(=O)c(-c2cccc(C#N)c2)nc2cnc(Oc3ccccc3)nc21	-41%[inhibitor]
C[C@@]12CCC(OC(=O)c3ccccc3)CC1CCc1ccccc12 (stereo partly drawn)	?

Continued.
SMILES	EPAC1 ag val
COC(=O)[C@@H]1CCCN1Cc1ccc2c(c1)CN(Cc1ccccc1F)CCO2	10%
O=C(c1ccncc1)N1CCC2(CCCN(Cc3ccncc3)C2)CC1	-25%
COc1cc(=O)n2c(c1C(=O)N(C)Cc1nccs1)CCN(Cc1ccc(Cl)cc1)CC2	-7%
CC1(C)OC[C@@H]2O[C@@]3(C(=O)O)OC(C)(C)O[C@H]3[C@@H]2O1	3%
CC(=O)Nc1ccccc1-c1nc(CNC(=O)c2ccc(-c3ccccc3F)cc2)c(C)o1	-17%
CCCCCCCCCCCCCCCCSCC(COC)COP(=O)([O-])OCC[N+](C)(C)C (stereo not drawn)	-140%[inhibitor]
Cc1c(C)n(CCN(C)C)c2ccc(C(=O)OCCN(C)C)cc12	-10%
CO/N=C(\C(=O)N[C@@H]1C(=O)N2C(C(=O)O)=C(CSc3cnns3)CS[C@H]12)c1csc(N)n1	-48%[inhibitor]
O=C(c1cc(C(F)(F)F)cc(C(F)(F)F)c1)N1CCC[C@@]2(CCN(c3ncccn3)C2)C1	-82%[inhibitor]
COc1ccc(NC(=O)N2CC[C@@]3(CCCN(C(=O)c4cccc(F)c4)C3)C2)cc1	-36%[inhibitor]
C(=C\c1ccccn1)/c1ccccc1	?
CNC1C(O)C(O)C(CO)O[C@H]1OC1C(O[C@@H]2C(O)C(O)[C@@H](N=C(N)N)C(O)C2N=C(N)N)OC(C)[C@]1(O)C=O (stereo partly drawn)	-2%
C=C1[C@@H](O)[C@H](CC(C)C)N(Cc2ccccc2Br)S1(=O)=O	-11%
Cn1cccc1C(=O)N1CCC[C@@]2(CCN(Cc3ccc(C#N)cc3)C2)C1	-57%[inhibitor]
Cc1cc(O)c(C=O)c(O)c1C(=O)O	-1%
CN1C[C@H](C(=O)N[C@@]2(C)O[C@@]3(O)C4CCCN4C(=O)C(Cc4ccccc4)N3C2=O)C[C@H]2c3cccc4[nH]cc(c34)C[C@H]21 (stereo partly drawn)	26%
CN(C)C(=O)c1ccc(-c2cc(Nc3ccccc3)ncn2)cc1	-47%[inhibitor]
CCC1(C2CCN(C(=O)c3cccc(F)c3F)CC2)NC(=O)N(CCc2scnc2C)C1=O (stereo not drawn)	-4%
CC(=O)Nc1ccc(SC[C@H](C)CN2CC[C@H](O)CCC2=O)cc1	22%
O=c1c(-c2ccccc2)c1-c1ccccc1	?
CC12CC[C@@](C(=O)O)(C(=O)C1=O)C2(C)C	0%
COc1ccc(CNc2ccnc(-c3c(C)noc3C)n2)c(OC)c1	-23%
O=C(Nc1ccccc1)N1CC2(CCN(C(=O)c3cc(C(F)(F)F)cc(C(F)(F)F)c3)CC2)C1	-64%[inhibitor]
CCOC(=O)C12CC1/C(=N\O)c1ccccc1O2 (stereo not drawn)	-5%
O=C(Nc1ccccc1)N1CC[C@@]2(CCCN(C(=O)c3cnccn3)C2)C1	?

Laid out differently: entries from further up
SMILES,EPAC1 ag val
CO[C@H]1[C@H](NC(=O)c2ccsc2)c2ccccc2C12CCN(Cc1cc3ccccc3o1)CC2,29%
O=C(NCC1CCC2(CCN(Cc3cnn(-c4ccc(F)cc4)c3)CC2)O1)c1ccccc1 (stereo not drawn),15%

The results go on.
SMILES	EPAC1 ag val
COc1ccccc1CCn1c(=O)c(-c2cc(F)cc(F)c2)nc2cncnc21	24%
COc1ccc(C(C)C(=O)c2ccc(O)cc2O)cc1 (stereo not drawn)	-15%
O=C(c1ccc(OCCN2CCCCC2)cc1)c1c(-c2ccc(O)cc2)sc2cc(O)ccc12	9%&16%
COc1cccc(-c2nccc(NCc3ccccc3)n2)c1	-24%
O=c1[nH]c(=O)n([C@H]2C[C@H](O)[C@@H](CO)O2)cc1/C=C/Br	3%
CN[C@H](CC(=O)O)C(=O)O	-7%&-11%&-31%
CC(C)NC[C@H](O)COc1ccc(CC(N)=O)cc1	-13%&-10%&-10%&4%

An excerpt; rates above refer to the full screens.
